Compound activity deposited in PubChem BioAssay by National Center for Advancing Translational Sciences (NCATS).
AmpC nodet inh – AmpC beta-lactamase inhibition, detergent-free assay; P00811; AmpC nitrocefin hydrolysis, absorbance 480 nm, no detergent; potencies from a single point are estimates; Potency, µM (highest dose often 28.7 µM), without a hit: at the highest dose activity change, negative = inhibition; 71,000 tested, 1.8% active; AID 585; active = falling curve, for most hits resting on a single point; inconclusive = weak or doubtful change; inactive = flat or rising curve; further: % of control where 0% means no effect; about half of the hits show no inhibition at the top dose; a quarter of the inactives give rising signals
Target sequence (P00811 whole entry, looked up): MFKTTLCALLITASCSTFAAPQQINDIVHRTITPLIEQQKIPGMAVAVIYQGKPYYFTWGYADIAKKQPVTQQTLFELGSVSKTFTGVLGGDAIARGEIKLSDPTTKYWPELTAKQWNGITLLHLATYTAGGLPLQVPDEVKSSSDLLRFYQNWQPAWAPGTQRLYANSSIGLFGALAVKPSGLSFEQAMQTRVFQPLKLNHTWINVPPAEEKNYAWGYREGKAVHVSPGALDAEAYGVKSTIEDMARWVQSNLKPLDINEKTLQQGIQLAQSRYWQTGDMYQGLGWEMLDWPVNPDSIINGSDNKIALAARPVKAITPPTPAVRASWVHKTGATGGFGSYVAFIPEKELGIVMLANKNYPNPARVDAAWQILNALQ
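AmpC in 20 mM phosphate buffer pH 7.0 was preincubated 15 min at room temperature with compounds. Nitrocefin (800 uM stock) was then added and hydrolysis followed at 480 nm every 20 s for 4 min.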
* marks the source's active call; other numbers are inactive results; ? = inconclusive; [ ] = another dose, or the depositor's remark. Potency means the concentration at half of the fitted maximal effect. The list is partial; count on the stated rates, not on these rows.

SMILES	AmpC nodet inh
COc1ccc(CNC(=O)CN2CCC(C(=O)c3ccc(OC)cc3)CC2)cc1	79.0%
COc1ccc(CCNS(=O)(=O)c2cccs2)cc1	-12.9%
O=C(CC1C(=O)NCCN1C(=O)c1ccc(F)cc1)OCc1ccccc1 (centres undefined)	19.7%
O=C1NC(=O)[C@@H]2C3c4ccccc4C=CN3[C@H](C(=O)c3cccs3)[C@H]12 (some centres undefined)	-5.4%
CCOc1ccccc1-c1nc(SCC(=O)O)n[nH]1	-6.1%
O=c1c(-c2ccc(Cl)cc2)nc2cnc(N3CCNCC3)nc2n1Cc1ccc(F)cc1	37.6%
CC(=O)c1cccc(NC(=O)C2CC(=O)N(c3cccc(C)c3C)C2)c1 (centres undefined)	48.5%
CCOc1cc(-c2ccc3c(c2)OCO3)cc(=O)c2c(C)oc(C)c12	-10.1%
Cn1c(=NC(=O)CSCC(=O)N2CCOCC2)sc2ccccc21	30.1%
COC(=O)c1c(C#N)c(N)nc2c1CCCC2	-9.1%
CC(C)CCOCC(=O)Oc1ccccc1C(=O)O	-13.1%
CC(C)C(CO)NC(=O)CC(=O)NC(CO)C(C)C (centres undefined)	1.5%
CC(C)Oc1ccc(C(=O)N(Cc2ccco2)C2CCS(=O)(=O)C2)cc1 (centres undefined)	55.2%
COCCNC(=O)c1ccc(Cl)c(Cl)c1	-3.2%
CC(=O)Nc1cc(C(=O)N2CCC3(CC2)OCCO3)ccc1S(=O)(=O)c1ccc(C)cc1	39.8%
COc1cccc(N2CCN(Cc3cccnc3)CC2)c1	9.8%
N[C@@H](CP(=O)(O)O)C(=O)O	-1.6%[5.75 µM]
COc1ccc(N2CCN(C(CNS(=O)(=O)c3cccs3)c3cccnc3)CC2)cc1 (centres undefined)	57.6%
O=C(CN(CCO)c1ccccc1)NC12CC3CC(CC(C3)C1)C2	69.8%
CNCCC=C1c2ccccc2CCc2ccccc21	14.4%[5.75 µM]
CCOC(=O)c1[nH]c(C)c(CN(Cc2ccco2)C(=O)C(F)(F)F)c1C	8.0%
COc1ccc(Cl)cc1S(=O)(=O)Nc1cccc(C(=O)O)c1	2.9%
CC(=O)N(c1ccc(N(C(C)=O)S(=O)(=O)c2cccs2)cc1)S(=O)(=O)c1cccs1	38.9%
COc1ccc(CCNC(=O)CNCC2CCCO2)cc1OC (centres undefined)	4.3%
Cc1cc(C)c2[nH]c(=O)c(C(c3nnnn3CC3CCCO3)N3CCCC(C)C3)cc2c1 (centres undefined)	82.5%
Cc1ccc(-c2nnn(CC(=O)N(CC(=O)NCC3CCCO3)c3ccccc3)n2)o1 (centres undefined)	32.3%
CC(C)[C@@]1(NC(=O)[C@@H]2C[C@H]3c4cccc5[nH]cc(c45)C[C@@H]3N(C)C2)O[C@]2(O)[C@H]3CCCN3C(=O)CN2C1=O	83.8%[12.8 µM]
c1ccc(CN2CCN(c3ncnc4nc[nH]c34)CC2)cc1	1.5%
Cc1cc(=O)oc2cc(OCC(=O)OCC(=O)NCc3ccc4c(c3)OCO4)ccc12	11.2%
C/C=C(\C)C(=O)O[C@@H]1C(C)=C2[C@H]([C@@H]1OC(=O)CCCCCCC)[C@@](C)(OC(C)=O)C[C@@H](OC(=O)CCC)[C@@]1(O)[C@H]2OC(=O)[C@]1(C)O	142.2%
CC(=O)C1=C(C)Nc2cc(C(F)(F)F)ccc2S1	-5.4%
O=C(NCCOc1ccc(Cl)cc1)C1CC(=O)N(c2ccc(F)cc2)C1 (centres undefined)	56.2%
Cn1cccc1C(=O)Nc1nccs1	-5.9%
CCOc1ccc(NC(=O)c2cnsn2)cc1	-3.4%
CCOC(=O)c1cn(CC)c2ccc(Br)cc2c1=O	-3.6%
Cc1ccc2c(nc3s/c(=C/c4cccs4)c(=O)n32)c1C	-10.1%

Two entries drawn at random from the list so far:
SMILES	AmpC nodet inh
O=c1c(-c2ccc(Cl)cc2)nc2cnc(N3CCNCC3)nc2n1Cc1ccc(F)cc1	37.6%
CC(C)C(CO)NC(=O)CC(=O)NC(CO)C(C)C (centres undefined)	1.5%

Continuation:
SMILES	AmpC nodet inh
Cn1c(=O)c2[nH]c(COCc3nc4c([nH]3)c(=O)n(C)c(=O)n4C)nc2n(C)c1=O	-0.2%[5.75 µM]
O=C(CN(Cc1ccco1)C(=O)CNS(=O)(=O)c1ccccc1)NCc1ccc(F)cc1	5.2%
O=C(NC1CCCCC1)N1CCC(c2nc(-c3ccc(S(=O)(=O)N4CCCC4)cc3)no2)CC1	86.1%
Cc1ccc2cc(CCNC(=O)C(C)(C)C)c(=O)[nH]c2c1	5.5%
COC(=O)c1ccccc1NC(=O)c1ccc2c(c1)C(=O)N(Cc1ccco1)C2=O	20.6%
O=C(c1ccncc1)N1CCC[C@@]2(CCN(c3ccncc3)C2)C1	3.6%
CC1CCN(C(=O)CSc2nnc(CN3CCOCC3)n2-c2ccccc2)CC1	30.9%
O=S(=O)(c1ccccc1)N1CCN(c2cc(-c3ccccc3)nc3ncnn23)CC1	66.3%
CCSC1=C(C#N)C2(CCCC2)C(C#N)=C(N)N1	-14.9%
Cc1ccc2c(c1)N(CCCC(=O)NCc1cccnc1)C(=O)CO2	11.0%
O=C(CSc1nc2ccccc2o1)N1CCN(c2ccccc2)CC1	2.2%
CCc1cc2c(=O)c(Oc3ccccc3)c(C)oc2cc1O	-8.2%
COc1cccc(-c2nnc(SCC(=O)Nc3ccc(OC)c(OC)c3)n2N)c1	13.5%
O=CN[C@@H](Cc1cnc[nH]1)C(=O)O	0.7%[5.75 µM]
Cc1c(-c2ccc(F)cc2)nc(N)c(C#N)c1-c1ccco1	-13.4%
Cc1ccc(S(=O)(=O)NC(C(=O)OCC(=O)NC2CCS(=O)(=O)C2)C(C)C)cc1 (centres undefined)	-4.5%
CCOC(=O)C1CCN(C(=O)c2oc3ccc(S(=O)(=O)N4CCCCCC4)cc3c2C)CC1	134.8%
Cc1c(NC(=O)c2cc(-c3ccccc3)on2)c(=O)n(-c2ccccc2)n1C	54.7%
O=C(CC1NC2CCCCC2NC1=O)Nc1cccc(C(F)(F)F)c1 (centres undefined)	13.1%
CCOc1ccc(C2CC(c3ccc(OC)c(OC)c3)n3nc(N)nc3N2)cc1 (centres undefined)	60.3%
O=C(CCCN1C(=O)CSc2ncccc21)N1CCN(Cc2ccccc2)CC1	51.8%
CC(C)c1nc(=S)c2ccccc2[nH]1	-1.8%
CC(=O)N1CC2(C)CN(C(C)=O)CC(C)(C1)C2=O	-8.4%
Cn1c(N2CCN(C(=O)NCc3ccccc3)CC2)nc2ccccc21	-1.1%
COc1ccc(-n2c(SCC(=O)Nc3ccc(C(=O)O)cc3)nnc2-c2cccs2)cc1	-19.0%
O=C(NS(=O)(=O)c1ccccc1Cl)c1ccc[nH]1	-5.6%
CCCOc1ccc(/C(O)=C2/C(=O)C(=O)N(CCN(CC)CC)C2c2ccncc2)cc1 (centres undefined)	3.0%
FC(F)(F)c1ccc(N2CCOCC2)c(Nc2nc3ccccc3n3cnnc23)c1	123.4%
COc1ccc(C(C)=O)c2c1OCCO2	-9.7%
CC1(C)CC(=O)C=C(NCCc2ccc(S(N)(=O)=O)cc2)C1	3.0%
COc1cccc(C(=O)Nc2ccc(C)cc2)c1	-15.1%
Cc1nnc(SCc2cc(=O)[nH]c(N3CCCCC3)n2)s1	1.8%
Cc1cccc(N/C(N)=N/c2nc3c(c(=O)[nH]2)CCCC3)c1	13.9%
COc1ccc(C(c2nnnn2CCc2ccccc2)N2CCN(C3CCCC3)CC2)cc1 (centres undefined)	51.0%
COc1ccc(C2C(C#N)=C(N)OC3=C2C(=O)CC(C)(C)C3)c(OC)c1OC (centres undefined)	16.7%
O=C(Nc1ccc2c(c1)OCO2)C1CCCN(S(=O)(=O)c2cccs2)C1 (centres undefined)	?

The last 7 records of the section before lead into the next:
SMILES	AmpC nodet inh
CC1(C)CC(=O)C=C(NCCc2ccc(S(N)(=O)=O)cc2)C1	3.0%
COc1cccc(C(=O)Nc2ccc(C)cc2)c1	-15.1%
Cc1nnc(SCc2cc(=O)[nH]c(N3CCCCC3)n2)s1	1.8%
Cc1cccc(N/C(N)=N/c2nc3c(c(=O)[nH]2)CCCC3)c1	13.9%
COc1ccc(C(c2nnnn2CCc2ccccc2)N2CCN(C3CCCC3)CC2)cc1 (centres undefined)	51.0%
COc1ccc(C2C(C#N)=C(N)OC3=C2C(=O)CC(C)(C)C3)c(OC)c1OC (centres undefined)	16.7%
O=C(Nc1ccc2c(c1)OCO2)C1CCCN(S(=O)(=O)c2cccs2)C1 (centres undefined)	?
COC(=O)c1ccccc1NS(=O)(=O)c1ccc2c3c(cccc13)C(=O)N2	80.3%
CCNc1ncc2nc(-c3cc(F)cc(F)c3)c(=O)n(-c3ccccc3)c2n1	-7.2%
CCN1C(=O)CS/C1=C(\C#N)S(=O)(=O)c1ccccc1	-9.9%
COC(=O)c1ccc(NC(=O)CSc2nnc(C)n2-c2ccccc2)cc1	55.8%
COc1ccc(NC(=O)C2(N(CC(C)C)C(=O)Cn3nnnc3N)CCCCC2)cc1	-9.1%
CCOC(=O)CCCOC(=O)c1ccc(S(=O)(=O)N(C)C)cc1	20.6%
N#CCSc1nc2c(c(C3CC=CCC3)c1C#N)CCC2 (centres undefined)	4.3%
CCOC(=O)N1CCN(C(=O)c2cn(C)c3ccc(S(=O)(=O)N4CCCC4)cc3c2=O)CC1	7.3%
O=[N+]([O-])c1c(Cl)c(Cl)c(Cl)c(Cl)c1Cl	-7.9%
CCOCCOC(=O)C1=C(C)Nc2ccc(C)cc2S1	64.1%
O=C(O)[C@H]1C[C@@H]1[C@H](NP(=O)(c1ccccc1)c1ccccc1)c1ccccc1	16.6%
CCC(c1nnnn1C1CCCCC1)N(Cc1ccco1)Cc1cc2ccc(OC)cc2[nH]c1=O (centres undefined)	113.6%
CC1=C(C(=O)Nc2cccc(C)n2)C(c2ccc3c(c2)OCO3)C2=C(CC(c3ccco3)CC2=O)N1 (centres undefined)	26.8%
O=C(c1ccco1)N(Cc1cc2ccccc2[nH]c1=O)C1CCCCC1	-13.3%
Cn1nnnc1SCC(=O)NC(=O)NCc1ccccc1	-10.4%
O=C(NCc1ccco1)c1noc2c1CCCCC2	-3.3%
CCOC(=O)N1CCC(NC(=O)c2csc3c2CCCC3)CC1	57.8%
Cc1cc(C)cc(Nc2cc(=O)n(C3CCCCC3)c(=O)[nH]2)c1	?
O=C(CCn1c(=O)c2ccccc2n(CC(=O)NCCC2=CCCCC2)c1=O)NCc1ccco1	-9.8%
Cc1cc(OCC(=O)OC(C)(C)C)c2c3c(c(=O)oc2c1)CCC3	0.1%
Cn1c(=O)n(Cc2ccccc2F)c2ccccc21	18.9%
CCN(CC)S(=O)(=O)c1cccc(C(=O)Nc2nc3cc4c(cc3s2)OCCO4)c1	6.8%
COc1ccccc1N=Cc1c(O)n(C)c(=O)n(C)c1=O	-0.7%
CCc1nc(NCCCn2ccnc2)c2oc3ccccc3c2n1	4.6%
CN1CCN(c2ncc3nc(CCc4ccccc4)c(=O)n(Cc4ccc(F)cc4)c3n2)CC1	154.2%
CCOc1ccccc1Nc1nc(N)nc(CN(C)C2CCCCC2)n1	-1.2%
CCCNC(=O)CS(=O)Cc1nc(-c2ccc(OC)cc2)oc1C (centres undefined)	24.9%
N/C(CC(=O)Nc1cccc(C(F)(F)F)c1)=N/O	4.6%
COc1ccc(-c2nnc3c4ccccc4c(C)nn23)cc1S(=O)(=O)N1CCN(CCO)CC1	120.8%
CCOC(=O)COc1ccc(S(=O)(=O)Nc2ccc3c(c2)OCCO3)cc1	-19.2%
COC(=O)c1ccccc1NC(=O)c1cc(-c2cccs2)on1	-7.9%
O=C(CSc1ccc2nnc(-c3cccc(F)c3)n2n1)NCc1ccco1	-2.1%
CCOC(=O)C1=C(C)NC(=O)NC1/C=C/c1ccccc1 (centres undefined)	-23.5%
N#Cc1c2n(c3c(=O)n(Cc4ccccc4Cl)cnc13)CCCCC2	40.9%
O=C(c1ccc2c(c1)OCO2)[C@@H]1[C@@H]2C(=O)N(C3CCCCC3)C(=O)[C@@H]2C2c3ccccc3C=CN21 (some centres undefined)	-0.4%
CCNC(=O)CC1SC(=Nc2cccc(Cl)c2C)N(C)C1=O (centres undefined)	43.0%
CC(C)(CNS(=O)(=O)c1ccc(F)cc1)CNS(=O)(=O)c1ccc(F)cc1	6.7%
CC(C)(C)S(=O)(=O)c1ccc2nc3c(n2c1)CCCC3	2.9%
Cc1ccccc1Cn1nc(C)c(NC(=O)c2noc3c2CCc2ccccc2-3)c1C	64.5%
CSc1ccc2nnc(-c3cccc(F)c3)n2n1	9.2%
Cc1ccccc1Cn1cc(NC(=O)c2noc3c2CC(C(C)(C)C)CC3)cn1 (centres undefined)	55.0%
COC(=O)C1=C(N)Oc2cc(C)n(C)c(=O)c2C1c1ccc(Cl)cc1 (centres undefined)	7.6%
Cc1cc(C)n2nc(SC(C)C(=O)N3CCC4(CC3)OCCO4)nc2n1 (centres undefined)	-3.2%
O=C(COc1cc(=O)n2c(n1)SCCC2)c1ccccc1	24.4%
CCCCn1c(=O)c2ccccc2c2ccccc2c1=O	0.3%
CCOC(=O)COc1ccc(S(=O)(=O)N2CCc3ccccc3C2)cc1	15.9%
Cn1c(=O)c(C(=O)CN2CCCc3ccccc32)c(N)n(Cc2ccccc2)c1=O	15.8%
CCC(c1nnnn1Cc1ccco1)N(Cc1cc2cc(OC)ccc2[nH]c1=O)C1CCCCC1 (centres undefined)	17.4%
Cc1noc(C)c1S(=O)(=O)Nc1ccc(C(=O)NCCc2ccccc2)cc1	-8.9%
COc1ccc(CCC(=O)NCCc2cn3c(C)csc3n2)cc1	27.5%
Cc1nc2c(-c3ccccc3)c(C)nn2c(C)c1CC(=O)O	5.0%
COC(=O)c1oc2ccc(Br)cc2c1NC(=O)CN1CCN(C)CC1	35.3%
O=C1c2ccccc2C(=O)N1CCSc1nncs1	-13.6%
CCN1CCN(c2ncnc3c2oc2nc(C)c4c(c23)CC(C)(C)OC4)CC1	40.4%
